Compound activity as filed in PubChem.
MbtI inh – MbtI salicylate synthase inhibition. inhibition, %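 (about 17 µg/mL by stock and volumes)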. purified MbtI enzyme, fluorescence intensity read-out. P9WFX0. 100,000 compounds, 0.89% hits;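 active means above 50% in both replicates, above 80% if mildly self-fluorescent; inactive means the rest, strongly fluorescent compounds included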;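 further: 0% = mean of negative and 100% = mean of positive controls; one replicate is shown; some compounds called inactive have numbers as strong as hits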
MenB inh – inhibitors of Mycobacterium tuberculosis MenB enzyme. P9WNP5. MenB enzyme assay, absorbance read-out; some hits fall short of the stated cut. inhibition, %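 (about 12 µg/mL by stock and volumes)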. 100,000 compounds, 0.43% hits;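 active means mean of two replicates above 30%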;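 further: 0% = no compound and 100% = wells with inactive enzyme; the first replicate is given; strong numbers were not always called active; inactives centre near -10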
Target sequence (P9WNP5 whole entry, looked up): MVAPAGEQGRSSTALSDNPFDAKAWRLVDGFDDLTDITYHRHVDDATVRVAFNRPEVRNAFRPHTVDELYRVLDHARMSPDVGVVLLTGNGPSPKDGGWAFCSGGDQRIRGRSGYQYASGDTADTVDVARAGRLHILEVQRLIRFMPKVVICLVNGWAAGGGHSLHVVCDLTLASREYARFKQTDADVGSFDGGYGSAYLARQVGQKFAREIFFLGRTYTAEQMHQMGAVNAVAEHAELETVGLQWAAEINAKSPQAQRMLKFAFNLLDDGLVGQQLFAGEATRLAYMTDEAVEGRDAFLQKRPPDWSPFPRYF
Polio RdRp inh – poliovirus RNA polymerase inhibition; 150,000 compounds, 0.66% hits; P03300; AID 588519; % elongation, % (compound at 16.7 µg/mL); poliovirus polymerase elongation, fluorescence polarization; stronger effect = lower value; in the data active means % elongation below about 90%; further: some results filed as inactive read as strong as hits
Target sequence (P03300 1749-2209 limits assumed): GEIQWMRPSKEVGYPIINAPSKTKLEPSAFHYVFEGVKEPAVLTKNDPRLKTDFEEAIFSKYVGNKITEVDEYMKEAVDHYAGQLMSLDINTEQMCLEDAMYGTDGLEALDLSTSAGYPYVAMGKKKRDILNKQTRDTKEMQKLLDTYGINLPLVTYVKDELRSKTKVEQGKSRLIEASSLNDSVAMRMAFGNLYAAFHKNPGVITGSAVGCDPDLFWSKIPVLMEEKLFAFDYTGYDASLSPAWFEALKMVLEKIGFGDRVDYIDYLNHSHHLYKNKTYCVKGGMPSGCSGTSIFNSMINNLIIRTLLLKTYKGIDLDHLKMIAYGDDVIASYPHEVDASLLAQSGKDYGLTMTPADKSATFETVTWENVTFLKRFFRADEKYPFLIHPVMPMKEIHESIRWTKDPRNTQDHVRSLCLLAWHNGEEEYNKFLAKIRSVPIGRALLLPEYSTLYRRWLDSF
Polio RdRp inh intensity – also measured in Polio RdRp inh; calls as there; % elongation; measured here: total intensity read-out; formula for this scale not given here;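 total fluorescence in place of polarization; lower means less elongation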
Active calls of the source: *; . = not tested or not shown; & = joins results of further samples.

Start of the data: the first 2 compounds as a preview:
SMILES | MbtI inh | MenB inh | Polio RdRp inh | Polio RdRp inh intensity
CCC(C)(CN(C)C)OC(=O)c1ccccc1 (configuration not stated) | -15 | 4 | 100 | 101
CCOC(=O)N1CCN(S(=O)(=O)N2CCCC(C(=O)NCc3ccc(F)cc3)C2)CC1 (configuration not stated) | -12 | 16 | 103 | 103

Main list (from the top)
SMILES | MbtI inh | MenB inh | Polio RdRp inh | Polio RdRp inh intensity
CCC(C)(CN(C)C)OC(=O)c1ccccc1 (configuration not stated) | -15 | 4 | 100 | 101
CCOC(=O)N1CCN(S(=O)(=O)N2CCCC(C(=O)NCc3ccc(F)cc3)C2)CC1 (configuration not stated) | -12 | 16 | 103 | 103
OC(c1ccccc1)c1ccc(Br)cc1 (configuration not stated) | -20 | -53 | 99 | 101
O=C1NCC2=C1C(c1ccc(Br)cc1)Nc1ccccc1N2 (configuration not stated) | -11 | -38 | 100 | 104
O=C(CC(C(=O)O)C1CCCO1)Nc1ccccc1 (configuration not stated) | . | -3 | 101 | 108
Cc1cc(C(=O)Nc2ccc(N3CCOCC3)cc2)no1 | 3 | -17 | 99 | 111
CC(=O)Nc1ccc(Oc2ccc(-c3noc(C)n3)cc2)cc1 | . | -8 | 110 | 108
COC(=O)c1cccc2[nH]ncc12 | 109 | -3 | 101 | 105
Nc1sc2c(c1-c1nc3ccccc3s1)CCC2 | 18 | . | 103 | 112
O=C(CSc1n[nH]c(-c2ccncc2)n1)N1c2ccccc2OCC1c1ccccc1 (configuration not stated) | -1 | -26 | 102 | 106
O=C(NC1CCN(Cc2ccccc2)CC1)c1cccs1 | -4 | 9 | 101 | 106
COc1cc2c(cc1OC)CNCC2 | -34 | -15 | 103 | 110
CC1=CC(C)C2(CO)COC(=C(C)C)C1C2C (configuration not stated) | 0 | -26 | 101 | 101
O=C1c2ccccc2S(=O)(=O)c2cc(C(=O)N(Cc3ccco3)C3CCS(=O)(=O)C3)ccc21 (configuration not stated) | -21 | -26 | 105 | 105
COc1ccc(NC(=O)CSC2CCCCC2)cc1 | -17 | -4 | 101 | 104
Cc1cc(C)n2c(Br)c(CSc3nc4ccccc4o3)nc2n1 | 14 | -9 | 103 | 102
C[N+](C)(C)CCOC(=O)c1ccccc1 | . | 1 | 105 | 109
COc1ccc(CNC(=O)Cc2cccs2)cc1OC | 2 | -2 | 106 | 108
CCOc1ccc(N2C(=O)c3ccccc3C2Nc2ccccc2OC)cc1 (configuration not stated) | 16 | -17 | 103 | 96
Oc1cccc(C(=S)N2CCCCC2)c1 | 15 | -42 | 104 | 98
O=C(c1cccc(S(=O)(=O)NC2CC2)c1)N1CCN(c2ncccn2)CC1 | 14 | -8 | 94 | 100
CCOC(=O)c1csc(-c2cn(C(C)C)c(=O)n(Cc3ccccc3)c2=O)n1 | 0 | -16 | 101 | 106
CN(C)CC(C)(C)CNc1ncnc2sccc12 | 4 | 5 | 118 | 127
Cc1nc(N2CCCC2)nc2oc(-c3ccccc3)nc12 | 100 | -5 | 99 | 110
CCn1c(C)nc2cc(S(=O)(=O)C(F)(F)F)ccc21 | -4 | -12 | 101 | 108

Remaining list, next part:
SMILES | MbtI inh | MenB inh | Polio RdRp inh | Polio RdRp inh intensity
C=CCNC(=O)Cc1ccc(-c2ccccc2)cc1 | -14 | -2 | 100 | 104
CC1(C)CC(=O)C(c2nc3ccc(C(=O)c4ccccc4)cc3[nH]2)=C(O)C1 | -4 | -13 | 102 | 102
CC(=O)Oc1ccc(Nc2ccccc2)cc1 | -2 | . | 99 | 100
CCCN(CCC)c1ncnc2c1cnn2-c1ccc(OC)cc1 | 2 | -3 | 105 | 109
Cc1ccc(S(=O)(=O)N2CCCCC2)cc1C(=O)N1CCCC1 | -28 | -3 | 106 | 103
COC(=O)CCS(=O)(=O)c1ccc(Oc2ccc(S(=O)(=O)CCC(=O)OC)cc2)cc1 | -7 | -28 | 99 | 102
CCN(CC)S(=O)(=O)c1ccc(C(=O)N2CCNC(=O)C2)cc1 | 3 | 5 | 100 | 99
CC(NC(=O)Nc1ccccc1O)(C(F)(F)F)C(F)(F)F | -7 | -7 | 101 | 102
COc1cc(CNC(=O)CCCC/C=C/C(C)C)ccc1O | -18&-8&-14 | -18&-3&3 | 102&100&103&101 | 101&100&98&101
O=S1(=O)CCC(S(=O)(=O)Nc2ccccc2)C1 (configuration not stated) | -15 | 4 | 101 | 102
O=C(/C=C/c1c(Cl)nc2sccn12)Nc1ccc2c(c1)OCCO2 | -5 | -6 | 103 | 104
Cc1ccc(CN2C(=O)/C(=c3\sc4nc(-c5cccs5)nn4c3=O)c3ccccc32)cc1 | -6 | -29 | 105 | 101
Cc1cccc(NC(=S)NC23CN4CN(CN(C4)C2)C3)c1C | -2 | 11 | 101 | 100
Cc1cc2nc(C(F)(F)F)cc(-c3cccs3)n2n1 | -5 | . | 100 | 102
C=C1C/C(=C/C)C(=O)O[C@@H]2CCN3CC=C(COC(=O)[C@]1(C)O)[C@H]23 | -16 | 2 | 99 | 100
COC(=O)C1=C(C)N(c2ccc(Br)cc2)C(=O)/C1=C\c1ccco1 | 8 | -31 | 100 | 102
CNC(=S)N=Nc1c(O)[nH]c2ccc(C(C)C)cc12 | 34 | -71 | 100 | 96
CCOC(=O)COc1cc(OCC(=O)OCC)c2c3c(c(=O)oc2c1)CCC3 | 78 | -21 | 100 | 100
O=C(CN1CCOCC1)NCc1ccccc1 | -5 | -9 | 103 | 101
CCOc1ccccc1NN | . | 5 | 98 | 102
COc1ccc(CNC(=O)c2cc3sccc3n2CC(=O)c2ccccc2)cc1 | 3 | -62 | 104 | 108
CC1=C(C(=O)NCCCN2CCN(c3cc(Cl)ccc3C)CC2)C2(CCCCC2)OC1=O | 0 | -24 | 101 | 96
CC(C)CS(=O)(=O)C1=NN2C(=N)/C(=C\c3ccc(N(C)C)c(Br)c3)C(=O)N=C2S1 | 14 | -85 | 110 | 113
Cc1ccc(Oc2ccc(C(=O)O)cc2)cc1C | -15 | -48 | 100 | 103
Cc1ccc(N=Cc2ccc3ncccc3c2)c(Br)c1 | 0 | . | 101 | 96

Structural class: those above containing an NH in an aromatic ring.
SMILES | MbtI inh | MenB inh | Polio RdRp inh | Polio RdRp inh intensity
COC(=O)c1cccc2[nH]ncc12 | 109 | -3 | 101 | 105
O=C(CSc1n[nH]c(-c2ccncc2)n1)N1c2ccccc2OCC1c1ccccc1 (configuration not stated) | -1 | -26 | 102 | 106
CC1(C)CC(=O)C(c2nc3ccc(C(=O)c4ccccc4)cc3[nH]2)=C(O)C1 | -4 | -13 | 102 | 102
CNC(=S)N=Nc1c(O)[nH]c2ccc(C(C)C)cc12 | 34 | -71 | 100 | 96

Record cards (already shown):
CC(NC(=O)Nc1ccccc1O)(C(F)(F)F)C(F)(F)F across the screens: MbtI inh: -7; MenB inh: -7; Polio RdRp inh: 101; Polio RdRp inh intensity: 102
Nc1sc2c(c1-c1nc3ccccc3s1)CCC2 across the screens: MbtI inh: 18; MenB inh: .; Polio RdRp inh: 103; Polio RdRp inh intensity: 112

The list goes on.
SMILES | MbtI inh | MenB inh | Polio RdRp inh | Polio RdRp inh intensity
CC(=O)N(c1ccccc1)C1CC(C)N(C(=O)C(C)C)c2ccccc21 (configuration not stated) | . | 1 | 110 | 114
CCCc1ccc(C(=O)N2CCOCC2)cc1 | -10 | -6 | 100 | 102
CCOc1nc(NC2CCCC2)nc(N2CCC(C)CC2)n1 | 7 | -29 | 102 | 100
COc1ccccc1/C=C/CN1CCN(Cc2ccccc2)CC1 | 4 | -14 | 102 | 101
CCCN1CCN(C(=O)c2c(C)nn(-c3ccccc3)c2Cl)CC1 | 7 | -22 | 102 | 109
CC1(C)C(c2ccccc2)=[N+]([O-])CN1O | 0 | 1 | 100 | 99
O=C(Cn1cc(/C=N/NC(=O)c2ccc(Oc3ccc(O)cc3)cc2)c2ccccc21)NCc1ccco1 | 91 | -28 | 105 | 102
Cc1noc(C)c1COc1cccc(C(=O)NC2CCCCCC2)c1 | -2 | -11 | 103 | 101
CCOC(=O)CCc1n[nH]c(=O)[nH]c1=O | . | -2 | 106 | 108
COC(=O)c1ccc(S(=O)(=O)NN2CCOCC2)n1C | -9 | -5 | 102 | 106
CSc1ncccc1C(=O)NCc1ccc(F)cc1 | -6 | 6 | 103 | 106
Cc1noc(C)c1CSc1ncccc1C(=O)Nc1ccnn1C1CCCC1 | 18 | -19 | 110 | 110
O=S(=O)(c1ccc(OCC(O)CNC2CC2)c(Cl)c1)N1CCOCC1 (configuration not stated) | -12 | -14 | 107 | 111
COc1ccc(CCNC(=O)c2c(C)cc(=O)oc2C)cc1OC | -3 | 1 | 99 | 101
COC(=O)c1cc(NC(=O)CN2C(=O)c3ccccc3C2=O)cc(C(=O)OC)c1 | 0 | -3 | 100 | 103
COc1ccc(OCC(O)CC(=O)O)cc1 (configuration not stated) | -7 | -62 | 105 | 100
Cc1nc2cc(Nc3ccncc3)ccc2s1 | 19 | -20 | 102 | 102
CN(C)/C=C1\C(=O)N(C)N=C1c1ccccc1O | -3 | -1 | 100 | 107
Cc1ccc(S(=O)(=O)NC(=O)NCC2CCCO2)cc1 (configuration not stated) | -12 | -20 | 105 | 106
Cc1nc(NCc2ccco2)[nH]c(=O)c1CCC(C)C | -6 | -28 | 99 | 100
CS(=O)(=O)c1ccccc1C(=O)Nc1cccc2ncccc12 | -3 | -1 | 97 | 104
COc1cc(OC)c2c(c1)ncc1c(C)nn(-c3ccccc3)c12 | -20 | -27 | 102 | 104
Cc1c2n(c3ccccc13)C/C(=C\c1ccccc1)C2=O | 0 | 5 | 90 | 156
CCCn1c(SCC(=O)NCCc2ccccc2)nc2c(oc3ccccc32)c1=O | -14 | -7 | 101 | 100
O=C(O)c1c2c(nc3ccccc13)CCCC2 | -5 | . | 101 | 103

Carrying on:
SMILES | MbtI inh | MenB inh | Polio RdRp inh | Polio RdRp inh intensity
CCCCN(C)C(=O)C1CCN(Cc2ccc(OCC)cc2)CC1 | . | 3 | 45* | 61*
O=C(ON1C(=O)c2ccccc2C1=O)c1ccc(NC(=O)c2ccco2)cc1 | -27 | -22 | 100 | 102
O=C(CN1CCOCC1)Nc1scc(-c2ccccc2)c1C(=O)N1CCOCC1 | 9 | -16 | 97 | 97
O=C(CN1CCN(S(=O)(=O)c2ccccc2)CC1)Nc1ccc2c(c1)CCC2 | -16 | -7 | 104 | 107
CC(=O)Nc1nc(Cn2nc(C(=O)O)c3ccccc3c2=O)cs1 | 5 | 15 | 99 | 102
CC1(C)OC(=O)C(=CNc2ccccc2F)C(=O)O1 | 1 | -4 | 101 | 101
Cc1cc(-c2nc(-c3ccc(Cl)cc3)cs2)no1 | 0 | -10 | 100 | 90
Cc1ccc(NC(=O)COC(=O)c2ccc[nH]c2=O)c(S(=O)(=O)N2CCOCC2)c1 | 2 | -6 | 108 | 109
COc1ccc(NC(=O)CN2CCN(S(=O)(=O)c3cccs3)CC2)cc1Cl | 2 | -17 | 108 | 110
Cc1ccc2c(c1)-c1onc(C(=O)N3CCCCC3)c1CO2 | -7 | 5 | 102 | 103
CCC(=O)Nc1cc2c3c(c1)C(C)C(=O)N3CCC2 (configuration not stated) | 0 | -14 | 104 | 106
CCCCC[C@H](O)/C=C/[C@H]1C(=O)C=C[C@@H]1C/C=C\CCCC(=O)O | -10 | 10 | 101&100 | 103&103
COc1ccc(OCCC(=O)Nc2nnc(C3CC3)s2)cc1 | -17 | -32 | 104 | 100
Cc1ccccc1N(CC(=O)Nc1ccccc1N1CCN(C)CC1)S(C)(=O)=O | -2 | 0 | 110 | 128
C(=N\c1ncccn1)/c1ccncc1 | 1 | . | 104 | 107
C=CCn1c(SCC(=O)N(C(C)C)C(C)C)nc2scc(-c3ccco3)c2c1=O | 30 | -3 | 101 | 111
CCn1c(SCC(=O)c2ccccc2)nnc1-c1ccc(OC)cc1 | 15 | 6 | 98 | 102
COc1ccc2c(c1)c(CC(=O)Nc1ncccc1C)c(C)n2C(=O)c1ccc(Cl)cc1 | . | -22 | 105 | 109
O=C(O)CCC(=O)CCN1CCCCC1 | -7 | 21 | 101 | 104
O=C1NC2(Cc3ccccc3C2)Nc2ccccc21 | 91 | -40 | 104 | 99
CCOC(=O)C1CCN(S(=O)(=O)c2ccccc2)CC1 | -25 | -28 | 102 | 103
CCc1noc(C)c1C(=O)NCc1ccc(C(=O)OC)cc1 | 24 | -22 | 99 | 103
C=CCN1C(=O)/C(=N\N=C\c2c(C)nn(-c3ccccc3)c2C)c2ccccc21 | 2 | -4 | 103 | 101
O=C(c1cc(-c2ccccc2)on1)N(Cc1ccccc1)c1ccccc1 | -8 | -21 | 101 | 103
CCOC(=O)C1CCCN(C(=O)c2ccccc2F)C1 (configuration not stated) | -9 | . | 102 | 96

Remaining list, next part
SMILES | MbtI inh | MenB inh | Polio RdRp inh | Polio RdRp inh intensity
Clc1cccc(Cl)c1OCCCn1ccnc1 | -6 | . | 100 | 104
Cc1ccc(-n2nc(C(=O)O)c(/C=C/c3ccc(Cl)cc3Cl)c(C#N)c2=O)cc1C | . | -39 | 99 | 100
O=C(Nc1ccc(S(=O)(=O)N2CCOCC2)cc1)C(F)(F)C1(F)OC(F)(F)C(F)(F)C1(F)F (configuration not stated) | -1 | -37 | 104 | 105
O=C(Nc1ccc(F)cc1)C(c1ccccc1)N1CCN(c2ccccc2F)CC1 (configuration not stated) | 6 | -31 | 112 | 113
CCOC(=O)CC1C(=O)NCCN1C(=O)c1cc2c(=O)n3ccccc3nc2s1 (configuration not stated) | 102 | -40 | 93 | 84
CCOC(=O)C(C#N)C1(c2ccccc2)CCOC(C)(C)C1 (configuration not stated) | 9 | -11 | 102 | 102
Nc1ccn(Cc2ccc(F)cc2)n1 | 1 | -48 | 102 | 100
CC(NC(=O)c1cccn1C)C12CC3CC(CC(C3)C1)C2 (configuration not stated) | -25 | -14 | 107 | 108
